Ecoli rRNA inh: reduced GFP signal of wild-type E. coli, primary screen, bacterial rRNA inhibitor project, GFP/RFP fluorescence, OD600, single point | E. coli WT GFP vs humanized-ribosome RFP mutants, 24 h; stronger effect = lower value; DMSO median 0, no signal -100 | GFP signal change (wild-type ribosome), % (test concentration not listed) | hit rate 1.6% among 350,000;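 active = significant combined selectivity score with lowered wild-type GFP, culture density cut under 30%, mutant RFP and density less affected; inactive = any of these conditions unmet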; also: one replicate is shown; some compounds called inactive have numbers as strong as hits
AF4-AF9 inh: inhibitors of AF4 peptide binding to AF9, primary screen, biochemical, AlphaScreen, biotin-AF4 peptide, FLAG-AF9, single point | inhibition, % at 10 µM | hit rate 0.47% among 350,000 | AID 651704, 2012;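 active = every replicate reaching a set inhibition limit, whatever the replicate mean, cut at about 25% in these data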;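 also: 0% = plate neutral control median and 100% = total signal loss; the record names both 10 and 1 µM as test concentration; the first replicate is given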
Target sequence (P42568 whole entry, looked up): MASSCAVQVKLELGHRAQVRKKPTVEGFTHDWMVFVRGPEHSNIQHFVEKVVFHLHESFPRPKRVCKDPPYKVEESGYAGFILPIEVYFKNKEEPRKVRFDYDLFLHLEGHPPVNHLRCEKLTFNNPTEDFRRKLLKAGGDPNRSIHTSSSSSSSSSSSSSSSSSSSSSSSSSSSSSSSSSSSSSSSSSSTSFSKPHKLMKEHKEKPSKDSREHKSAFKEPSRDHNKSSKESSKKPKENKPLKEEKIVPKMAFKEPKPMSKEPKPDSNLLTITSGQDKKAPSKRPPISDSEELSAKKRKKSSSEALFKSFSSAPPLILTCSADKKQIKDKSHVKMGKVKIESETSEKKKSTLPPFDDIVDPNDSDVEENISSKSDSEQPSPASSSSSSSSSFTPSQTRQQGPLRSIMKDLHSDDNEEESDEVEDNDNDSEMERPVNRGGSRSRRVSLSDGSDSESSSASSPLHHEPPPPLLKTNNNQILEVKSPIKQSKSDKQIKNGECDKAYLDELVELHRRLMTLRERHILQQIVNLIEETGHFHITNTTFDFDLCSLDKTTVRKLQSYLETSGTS
Ecoli rRNA inh OD600: recorded beside Ecoli rRNA inh, whose call it bears; OD600 change, %; measured here: OD600 growth;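 optical density of the mix in the first replicate; 0 = DMSO median and -100 = no signal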
Ecoli rRNA inh RFP: recorded beside Ecoli rRNA inh, whose call it bears; RFP signal change, %; measured here: RFP humanized mutant strains;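 first replicate; 0 = DMSO median and -100 = no signal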
* = called active by the depositor; i = inactive; / = not tested or not shown. This is a subset; rates above refer to the full screens.

Ecoli rRNA inh	Ecoli rRNA inh OD600	Ecoli rRNA inh RFP	AF4-AF9 inh	Molecule
0	5	-0.8	-0.6	Cc1noc(C)c1S(=O)(=O)N(C)C[C@@H]1OCCCC[C@@H](C)Oc2ccc(NC(=O)CCCN(C)C)cc2C(=O)N([C@H](C)CO)C[C@@H]1C
-2	-7	3.6	-16	COc1cccc(NC(=O)C[C@H]2CC[C@@H]3[C@@H](COc4ccc(NC(=O)c5ccccc5F)cc4C(=O)N3C)O2)c1
3	2	1.6	2.1	COc1cccc(C(=O)Nc2ccc3c(c2)OC[C@H](C)N(C)C[C@@H](C)[C@H](OC)CN(C)C3=O)c1
4	12	-1.2	-3.1	CC(C)NC(=O)N(C)C[C@@H]1Oc2ccc(NC(=O)Cc3ccccc3)cc2CC(=O)N([C@@H](C)CO)C[C@@H]1C
-1	-1	-0.7	-3.7	O=C(NCc1ccccn1)[C@@H]1[C@@H](CO)[C@@H]2Cn3c(cccc3=O)[C@H]1N2CC1CCCC1
-8	-6	9.7	-0.7	O=C(Nc1ccc(F)cc1)N1CC(=O)N2[C@H](C1)[C@@H](c1ccc(Br)cc1)[C@@H]2CO
-1	-1	2.1	-0.6	Cc1noc(C)c1S(=O)(=O)Nc1ccc2c(c1)C(=O)N([C@H](C)CO)C[C@@H](C)[C@H](CN(C)C(=O)C1CCCCC1)OCCCC[C@@H](C)O2
5	8	1.9	-1.7	C[C@H](CO)N1C[C@H](C)[C@H](CN(C)CC2CC2)Oc2ccc(NC(=O)CCC(F)(F)F)cc2CC1=O

Further results
Ecoli rRNA inh	Ecoli rRNA inh OD600	Ecoli rRNA inh RFP	AF4-AF9 inh	Molecule
3	3	0.2	-1.6	C[C@@H]1CN([C@H](C)CO)C(=O)c2cc(NS(=O)(=O)c3ccccc3)ccc2O[C@@H](C)CCCCO[C@@H]1CN(C)C(=O)CCCN(C)C
-5	-6	-0.8	1.5	C[C@H](CO)N1C[C@H](C)[C@@H](CN(C)C(=O)c2ccccc2)OCCCC[C@H](C)Oc2ccc(NC(=O)Nc3ccccc3)cc2C1=O
5	8	-1.1	-0.6	O=C(C[C@H]1CC[C@@H](NC(=O)C2CCOCC2)[C@@H](CO)O1)NCC1CCCCC1
2	2	0.3	2.6	Cc1ccccc1S(=O)(=O)N1CC(=O)N2[C@H](CO)[C@@H](c3ccc(C#CCN(C)C)cc3)[C@H]2C1
4	10	-3.1	-1.8	Cc1noc(C)c1NC(=O)N(C)C[C@@H]1Oc2ncc(C#CCC(C)C)cc2C(=O)N([C@@H](C)CO)C[C@H]1C
-3	6	-3.2	0.6	CCC(=O)N1CC2(C1)CN(C(=O)Cc1ccccc1)[C@H](CO)c1c2c2ccc(OC)cc2n1C
12	-1	0.8	-1.7	CN1C[C@@H]2[C@@H]3C(=O)N(Cc4ccccc4)C(=O)[C@@H]3[C@](Cc3ccccc3)(C1=O)N2C(=O)c1ccc(C(F)(F)F)cc1
-2	2	-1.7	-2.7	C[C@H]1CN([C@@H](C)CO)C(=O)CCCn2cc(nn2)CO[C@H]1CN(C)C(=O)Nc1ccc(F)cc1

(continued)
Ecoli rRNA inh	Ecoli rRNA inh OD600	Ecoli rRNA inh RFP	AF4-AF9 inh	Molecule
-3	-3	0.1	2.8	CO[C@@H]1CN(C)C(=O)c2cc(NC(C)=O)ccc2OC[C@@H](C)N(Cc2ccccc2F)C[C@H]1C
-5	-5	1.1	1.7	C[C@H]1CN([C@@H](C)CO)C(=O)c2cccc(NC(=O)Nc3cccc4ccccc34)c2O[C@H]1CN(C)C(=O)Nc1ccc(F)cc1
-2	-6	9.4	-1.9	COc1cccc(-c2ccc3c(c2)[C@@H]2[C@@H](CCN2C(=O)c2ccc4c(c2)OCO4)[C@H](CO)N3C)c1
-3	2	2.9	0.3	O=S(=O)(N[C@@H]1CC[C@H](CCn2cc(C3(O)CCCC3)nn2)O[C@H]1CO)c1ccc(Cl)cc1
2	-3	0.9	2.0	C[C@@H]1CN([C@@H](C)CO)C(=O)c2cccc(N(C)C)c2O[C@@H]1CN(C)C(=O)Nc1cccc2ccccc12
-4	-1	-0.6	1.8	C[C@H](CO)N1C[C@H](C)[C@@H](CN(C)Cc2ccncc2)Oc2ncc(C3=CCCCC3)cc2C1=O
10	11	1.5	-2.9	COC(=O)[C@@]1(Sc2ccc(C)cc2)CC(=O)N(C(=O)CCc2ccccc2)[C@@H]1c1ccccc1
-5	-15	2.7	9.3	C[C@H]1CN([C@@H](C)CO)S(=O)(=O)c2ccc(C3=CCCCC3)cc2O[C@H]1CN(C)C(=O)C1CCCCC1

Remaining list, next part:
Ecoli rRNA inh	Ecoli rRNA inh OD600	Ecoli rRNA inh RFP	AF4-AF9 inh	Molecule
1	3	0.4	-1.8	CO[C@H]1CN(C)C(=O)c2cc(NC(=O)C3CCC3)ccc2OC[C@H](C)N(C)C[C@H]1C
0	5	-3.3	-0.8	C[C@H](CO)N1C[C@H](C)[C@H](CN(C)Cc2cccnc2)Oc2ncc(C3=CCCCC3)cc2C1=O
3	2	-2.0	0.7	O=C(C1CCCC1)N1C[C@H]2[C@@H](c3ccccc31)[C@H](CO)N2C(=O)c1ccccc1
5	22	5.6	3.2	Cc1ccc(C)c(N2CCN(C(=O)CCc3nc(-c4ccc(Br)cc4)no3)CC2)c1
-5	-6	1.4	2.6	CC(C)(C)OC(=O)Nc1ccccc1-n1nnnc1C(C(=O)c1ccc(F)cc1)N1CCOCC1 (configuration not stated)
-6	-11	2.6	2.4	COc1ccc(S(=O)(=O)Nc2ccc3c(c2)C(=O)N([C@@H](C)CO)C[C@@H](C)[C@@H](CN(C)S(=O)(=O)c2cccs2)O3)cc1
2	3	1.0	-1.9	CCC(=O)N(C)C[C@@H]1Oc2ncc(-c3ccc(C#N)cc3)cc2C(=O)N([C@@H](C)CO)C[C@H]1C
3	6	-3.4	0.5	CNc1cncc(-c2ccc(S(C)(=O)=O)cc2)n1

Carrying on.
Ecoli rRNA inh	Ecoli rRNA inh OD600	Ecoli rRNA inh RFP	AF4-AF9 inh	Molecule
1	-1	0.3	0.2	COc1cc(OC)cc(C(=O)NC(C(=O)OCn2nnc3ccccc3c2=O)C(C)C)c1 (configuration not stated)
-6	5	4.4	-1.2	CC(C)C[C@H]1COc2cc(N3CCC[C@@H]3CO)ccc2S(=O)(=O)N1
-3	4	0.1	-1.3	O=C(C[C@@H]1CC[C@H](NC(=O)c2cccnc2)[C@@H](CO)O1)NCCN1CCCCC1
5	8	2.8	-7.0	O=C(CCN1N=C(c2ccccc2)CCC1=O)NC1CCCCC1
0	-12	-3.1	-1.5	Cc1noc(C)c1NC(=O)N(C)C[C@H]1OCCCC[C@@H](C)Oc2ccc(NC(=O)Cc3ccccc3)cc2C(=O)N([C@@H](C)CO)C[C@@H]1C
0	-3	-0.4	-2.3	COc1ccccc1C(=O)Nc1ccc2c(c1)C(=O)N(C)C[C@@H](OC)[C@H](C)CN(C(C)=O)[C@H](C)CO2
-16	-46	34	1.2	CCc1csc(N2[C@H](CO)[C@@H](c3ccc(-c4ccc(F)cc4)cc3)[C@@H]2C#N)n1
-18	-55	23	-0.7	COc1cccc(C#Cc2ccc([C@@H]3[C@@H](CO)N4C(=O)CN(C(=O)Cc5cccnc5)C[C@@H]34)cc2)c1

Continued.
Ecoli rRNA inh	Ecoli rRNA inh OD600	Ecoli rRNA inh RFP	AF4-AF9 inh	Molecule
-1	-4	-0.4	-1.6	C[C@@H](O)C#Cc1ccc([C@H]2[C@@H](CO)N3CCCCN(C(=O)c4ccc5c(c4)OCO5)C[C@@H]23)cc1
5	2	-2.4	1.5	C[C@@H]1CN([C@H](C)CO)C(=O)c2cccc(NC(=O)Nc3ccc(F)cc3)c2O[C@@H]1CN(C)C(=O)NC1CCCCC1
2	10	-1.5	0.0	CCC(=O)N1C[C@H](C)[C@H](OC)CN(C)C(=O)c2cc(NC(=O)c3cnccn3)ccc2OC[C@@H]1C
5	6	0.2	0.1	C[C@@H]1CN([C@@H](C)CO)C(=O)Cc2cc(NC(=O)Cc3ccccc3)ccc2O[C@@H]1CN(C)C(=O)NC1CCCCC1
-7	-9	1.9	-1.2	CC(=O)c1cccc(-c2cnc3c(NC=O)cc(-c4cccc(C(=O)N(C)C)c4)cn23)c1
-11	-22	-2.6	0.0	Clc1cccc(Cc2c(-c3ccccc3)nc3ccc(Cl)cn23)c1
-57	-81	-15	11	Fc1cccc(CN2C[C@@H]3N[C@H](C2)[C@@H]3c2ccc(-c3cccc(F)c3)cc2)c1
i	/	/	1.6	COc1ccc(S(=O)(=O)Nc2ccc3c(c2)C(=O)N([C@@H](C)CO)C[C@H](C)[C@H](CN(C)Cc2ccncc2)OCCCC[C@H](C)O3)cc1

More compounds:
Ecoli rRNA inh	Ecoli rRNA inh OD600	Ecoli rRNA inh RFP	AF4-AF9 inh	Molecule
0	1	0.7	2.1	COc1ccc(NC(=O)N(C)C[C@H]2OCCCC[C@H](C)Oc3ccc(NC(=O)CCCN(C)C)cc3C(=O)N([C@@H](C)CO)C[C@@H]2C)cc1
-3	-7	-5.4	-0.8	C=CCN(CC=C)Cc1cc(=O)oc2cc(C)ccc12
-20	-36	12	-1.4	O=C(Nc1ccccc1)N1CCCCN2[C@H](CO)[C@H](c3ccc(-c4ccccc4)cc3)[C@@H]2C1
5	4	-0.5	-0.3	CO[C@H]1CN(C)C(=O)c2cc(C#N)ccc2OCC[C@@H]2CC[C@@H](OC)[C@H](CN(C)C(=O)[C@@H]1C)O2
-23	-30	-18	-1.7	COc1ccc(Br)c(Cn2c(C)c(C(=O)N(C)Cc3ccc(F)cc3)sc2=O)c1

As a short view, part of the list above:
Ecoli rRNA inh	Ecoli rRNA inh OD600	Ecoli rRNA inh RFP	AF4-AF9 inh	Molecule
5	8	2.8	-7.0	O=C(CCN1N=C(c2ccccc2)CCC1=O)NC1CCCCC1
0	-12	-3.1	-1.5	Cc1noc(C)c1NC(=O)N(C)C[C@H]1OCCCC[C@@H](C)Oc2ccc(NC(=O)Cc3ccccc3)cc2C(=O)N([C@@H](C)CO)C[C@@H]1C
0	-3	-0.4	-2.3	COc1ccccc1C(=O)Nc1ccc2c(c1)C(=O)N(C)C[C@@H](OC)[C@H](C)CN(C(C)=O)[C@H](C)CO2
-16	-46	34	1.2	CCc1csc(N2[C@H](CO)[C@@H](c3ccc(-c4ccc(F)cc4)cc3)[C@@H]2C#N)n1
-18	-55	23	-0.7	COc1cccc(C#Cc2ccc([C@@H]3[C@@H](CO)N4C(=O)CN(C(=O)Cc5cccnc5)C[C@@H]34)cc2)c1
-1	-4	-0.4	-1.6	C[C@@H](O)C#Cc1ccc([C@H]2[C@@H](CO)N3CCCCN(C(=O)c4ccc5c(c4)OCO5)C[C@@H]23)cc1
5	2	-2.4	1.5	C[C@@H]1CN([C@H](C)CO)C(=O)c2cccc(NC(=O)Nc3ccc(F)cc3)c2O[C@@H]1CN(C)C(=O)NC1CCCCC1
2	10	-1.5	0.0	CCC(=O)N1C[C@H](C)[C@H](OC)CN(C)C(=O)c2cc(NC(=O)c3cnccn3)ccc2OC[C@@H]1C
5	6	0.2	0.1	C[C@@H]1CN([C@@H](C)CO)C(=O)Cc2cc(NC(=O)Cc3ccccc3)ccc2O[C@@H]1CN(C)C(=O)NC1CCCCC1
-7	-9	1.9	-1.2	CC(=O)c1cccc(-c2cnc3c(NC=O)cc(-c4cccc(C(=O)N(C)C)c4)cn23)c1
-11	-22	-2.6	0.0	Clc1cccc(Cc2c(-c3ccccc3)nc3ccc(Cl)cn23)c1
-57	-81	-15	11	Fc1cccc(CN2C[C@@H]3N[C@H](C2)[C@@H]3c2ccc(-c3cccc(F)c3)cc2)c1
i	/	/	1.6	COc1ccc(S(=O)(=O)Nc2ccc3c(c2)C(=O)N([C@@H](C)CO)C[C@H](C)[C@H](CN(C)Cc2ccncc2)OCCCC[C@H](C)O3)cc1
0	1	0.7	2.1	COc1ccc(NC(=O)N(C)C[C@H]2OCCCC[C@H](C)Oc3ccc(NC(=O)CCCN(C)C)cc3C(=O)N([C@@H](C)CO)C[C@@H]2C)cc1
-3	-7	-5.4	-0.8	C=CCN(CC=C)Cc1cc(=O)oc2cc(C)ccc12
-20	-36	12	-1.4	O=C(Nc1ccccc1)N1CCCCN2[C@H](CO)[C@H](c3ccc(-c4ccccc4)cc3)[C@@H]2C1

Assay outcomes (PubChem BioAssay)
